Assay outcomes (PubChem BioAssay)
Arbovirus inh = arbovirus infection inhibition. arbovirus infection cell-based antiviral screen. inhibition, % at 10 µM. 200,000 tested, 0.37% active. AID 1251;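 active = inhibition from about 30%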;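 also: bluetongue infection of BSR cells; cell survival read as ATP light after 72 h; 0% = infected wells without compound and 100% = uninfected wells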
YopH inh = inhibitors of Yersinia enterocolitica YopH tyrosine phosphatase. fluorescence Ex485/Em525. inhibition, %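 (about 10 µM by stock and volumes)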. 140,000 tested, 0.16% active. AID 898;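 active = inhibition of 50% or more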;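 also: controls were vehicle for no effect and minimum signal wells for full effect; inactives centre near -20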
Mtb H37Rv = M. tuberculosis H37Rv growth inhibitors, H37Rv strain (AID 1626); M. tuberculosis H37Rv growth inhibition; higher % means a stronger effect; inhibition, % at 10 µM; hits with a dose series show IC50 in µM; 220,000 tested, 0.95% active;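 active = confirmed in a dose series; inconclusive = inhibition above 80% but not taken into the dose series; inactive = below 80% or under 30% at every dose of the series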;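 also: bacteria incubated seven days before Alamar blue readout; 0% = bacteria only wells and 100% = bacteria with antibiotic wells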
Mtb betalactam = beta-lactam sensitization of Mtb H37Rv. M. tuberculosis H37Rv growth with meropenem, percent inhibition; hits of this screen are not shown here. inhibition, % at 25 µM. 330,000 tested, 0.27% active;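 active = about 74% or more and at least 40 points above the plate without the antibiotic, then above 30% in a dose series; inconclusive = first-round hits that could not be retested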;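 also: growth measured after seven days incubation then overnight dye step; 0% = bacteria only wells and 100% = bacteria with antibiotic; twin plates without the antibiotic show which effects depend on it; some results filed as inactive read as strong as hits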
RecA intein inh = inhibitors of M. tuberculosis RecA intein splicing | cell-free RecA intein splicing, fluorescence | 290,000 tested, 0.75% active | inhibition, %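 (about 9 µM by stock and volumes)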; in the data active = inhibition above about 30%; inconclusive = no clear call, values can overlap the other calls;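 also: 0% = vehicle wells and 100% = reference inhibitor control wells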
Target sequence (P9WHJ3 whole entry, looked up): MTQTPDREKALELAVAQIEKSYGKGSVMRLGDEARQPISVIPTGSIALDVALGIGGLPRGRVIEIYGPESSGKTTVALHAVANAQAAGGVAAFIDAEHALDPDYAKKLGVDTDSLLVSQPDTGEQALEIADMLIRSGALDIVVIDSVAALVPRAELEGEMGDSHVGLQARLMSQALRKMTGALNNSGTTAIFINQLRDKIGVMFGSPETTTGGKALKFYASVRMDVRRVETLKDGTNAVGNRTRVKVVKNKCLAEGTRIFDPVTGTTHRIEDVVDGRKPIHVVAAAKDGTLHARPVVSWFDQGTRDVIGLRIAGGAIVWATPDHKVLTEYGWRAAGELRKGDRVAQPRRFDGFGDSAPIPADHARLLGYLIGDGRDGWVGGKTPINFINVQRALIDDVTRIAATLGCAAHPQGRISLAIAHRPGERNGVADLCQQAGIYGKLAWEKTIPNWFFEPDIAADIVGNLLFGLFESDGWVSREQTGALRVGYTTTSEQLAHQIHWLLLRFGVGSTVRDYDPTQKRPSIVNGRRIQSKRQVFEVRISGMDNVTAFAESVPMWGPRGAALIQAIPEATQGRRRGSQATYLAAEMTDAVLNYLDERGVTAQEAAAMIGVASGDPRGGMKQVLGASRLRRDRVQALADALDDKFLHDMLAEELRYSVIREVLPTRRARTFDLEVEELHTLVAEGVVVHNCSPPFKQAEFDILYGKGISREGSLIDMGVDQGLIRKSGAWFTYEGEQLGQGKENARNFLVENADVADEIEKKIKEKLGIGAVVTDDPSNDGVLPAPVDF
Arbovirus inh repeat = further read-out of Arbovirus inh, marked with its call; inhibition, %; measured here: 10K subset replicate screen; many hits read low in the repeat;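 first of two repeat runs on a subset; 0% = infected and 100% = uninfected wells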
* = called active by the depositor.

O=C(NNC(=O)c1cc2cc3ccccc3nc2s1)c1ccc(F)cc1 was read as Arbovirus inh -13.1, YopH inh -32.5, Mtb betalactam -4.2 and RecA intein inh -2.6.
`CCOC(=O)C1CCN(Cc2ccc(-c3ccccc3)cc2)CC1` gave Mtb betalactam -7.0 and RecA intein inh -1.1.
Cc1cc(C(F)(F)F)nn1CC(=O)N1CCCC1 was read as Arbovirus inh 0.2, YopH inh -26.1, Mtb H37Rv -4.3%, Mtb betalactam -0.5 and RecA intein inh -2.0.
Cc1ccc(C2c3c(oc4ccccc4c3=O)C(=O)N2c2nnc(C(C)C)s2)o1 (centres undefined) was read as Arbovirus inh 6.5, YopH inh -40.0, Mtb H37Rv -5.5%, Mtb betalactam -0.7, RecA intein inh -0.1 and Arbovirus inh repeat -1.8.
CCCCN1CC[C@H]2C=CC[C@@H](C(=O)Nc3ccccc3)[C@H]2C1=O was read as Mtb H37Rv -7.0%, Mtb betalactam -7.3 and RecA intein inh -0.1.
CCC(Sc1nc(C)cc(C)n1)C(=O)Nc1ccc(S(N)(=O)=O)cc1 (centres undefined) was read as Mtb betalactam 6.8 and RecA intein inh -1.0.
`C=CCNc1oc(-c2ccco2)nc1S(=O)(=O)c1ccccc1` gave Mtb betalactam inconclusive and RecA intein inh 3.6.
N#C/C(=C/c1cn(-c2ccccc2)nc1-c1cccc(OCc2ccccc2)c1)C(=O)NCCCn1ccnc1 was read as Arbovirus inh -37.8, YopH inh -41.0, Mtb H37Rv inconclusive, Mtb betalactam inconclusive and RecA intein inh -2.1.
CC(=O)C1=C(C)Nc2ncnn2C1c1ccc(C)cc1 (centres undefined) was read as Mtb betalactam -5.7 and RecA intein inh -0.5.
COc1ccccc1C(=O)NNc1ncc(C)s1 was read as Mtb betalactam 14.2 and RecA intein inh -0.6.
Screening Clc1ccc(NC2=NCCCCC2)cc1 returned Arbovirus inh -3.5, YopH inh -46.7, Mtb H37Rv -6.0%, Mtb betalactam 18.5 and RecA intein inh 0.2.
`COc1cccc(C(=O)NCCS(=O)(=O)NC(C)CCc2ccccc2)c1` (centres undefined) gave Mtb betalactam -11.1 and RecA intein inh 2.0.
O=C(CSc1cn(CCNC(=O)c2ccccc2)c2ccccc12)NCc1ccco1 was read as Arbovirus inh 1.3, Mtb H37Rv 6.8%, Mtb betalactam -0.7, RecA intein inh 5.1 and Arbovirus inh repeat -0.7.
COc1cc(C(=O)NC(=S)N2C[C@H]3C[C@H](C2)c2cccc(=O)n2C3)cc(OC)c1OC was read as Mtb betalactam -5.8 and RecA intein inh 15.2.
`NC(=O)NC(=O)C(Nc1ccc2c(c1)CCC2)c1ccccc1` (centres undefined) gave Mtb betalactam -2.3 and RecA intein inh 0.1.
`Cc1ccnc(SCCn2c(N3CCCCC3)nc3c2c(=O)n(C)c(=O)n3C)n1` gave Arbovirus inh 2.6, YopH inh -22.2, Mtb H37Rv -1.2%, Mtb betalactam -3.4 and RecA intein inh 6.3.
For CCOC(=O)c1cc(C)sc1/N=C/C1=C(O)CCCC1=O the results were Arbovirus inh -12.3, YopH inh -19.6, Mtb H37Rv -3.3%, Mtb betalactam -1.9 and RecA intein inh 3.8.
For CC1CCN(C(=O)CSc2nnc(Cc3cccn3C)n2CCc2ccccc2)CC1 the results were Arbovirus inh 5.5, YopH inh -25.1, Mtb H37Rv -8.9%, Mtb betalactam -0.5 and RecA intein inh 1.6.
For CN(CCC#N)S(=O)(=O)c1cc2c3c(c1)CCN3C(=O)CC2 the results were Mtb betalactam -1.7 and RecA intein inh 0.6.
CCOC(=O)NC(=O)c1cn(Nc2ccccc2C(F)(F)F)c(=O)[nH]c1=O was read as Mtb H37Rv -4.7%, Mtb betalactam -3.8 and RecA intein inh -3.0.

At a glance, part of the list above.
For CC1CCN(C(=O)CSc2nnc(Cc3cccn3C)n2CCc2ccccc2)CC1 the results were Arbovirus inh 5.5, YopH inh -25.1, Mtb H37Rv -8.9%, Mtb betalactam -0.5 and RecA intein inh 1.6.
For CN(CCC#N)S(=O)(=O)c1cc2c3c(c1)CCN3C(=O)CC2 the results were Mtb betalactam -1.7 and RecA intein inh 0.6.
CCOC(=O)NC(=O)c1cn(Nc2ccccc2C(F)(F)F)c(=O)[nH]c1=O was read as Mtb H37Rv -4.7%, Mtb betalactam -3.8 and RecA intein inh -3.0.

Continued:
`CC(=O)Oc1c(I)cc(I)cc1C(=O)Nc1ccc(Cl)cc1` gave Mtb betalactam 1.8 and RecA intein inh 8.5.
Screening Brc1ccc(OCCN2CCOCC2)cc1 returned Mtb betalactam -4.1 and RecA intein inh -1.3.
Screening COC(=O)c1ccc(NC(=O)c2ccc3nc(C)sc3c2)cc1 returned Mtb betalactam 5.6 and RecA intein inh -2.5.
Cn1c(=O)c(=O)n(C)c2cc(S(=O)(=O)N3CCc4ccccc43)ccc21 was read as Arbovirus inh -3.8, YopH inh -42.0, Mtb H37Rv 0.1%, Mtb betalactam inconclusive and RecA intein inh -3.9.
`COc1ccccc1C(=O)N1CCN(Cc2nc(CC3CC3)no2)CC1` gave Arbovirus inh 1.0, Mtb H37Rv 7.8%, Mtb betalactam -1.1 and RecA intein inh -2.8.
Screening O=C(NCCN1CCOCC1)c1ccc2c(c1)N(Cc1ccc(Cl)cc1)CCS2 returned Mtb H37Rv -2.8%, Mtb betalactam -4.0 and RecA intein inh -1.1.
CC1CN(c2nc(-c3ccccc3)nc3ccccc23)CC(C)O1 (centres undefined) was read as Arbovirus inh 18.8, YopH inh -34.3, Mtb H37Rv 11.2%, Mtb betalactam 3.5 and RecA intein inh 11.8.
`Cc1ccccc1CNC(=O)CC1C(=O)NCCN1CC1CCCCC1` (centres undefined) gave Arbovirus inh 6.5, Mtb H37Rv 6.1%, Mtb betalactam -4.0 and RecA intein inh 1.1.
For CCCC(=O)Nc1ccc(C(=O)NNC(=O)c2cccc([N+](=O)[O-])c2)cc1 the results were Arbovirus inh 8.1, Mtb H37Rv -1.5%, Mtb betalactam -3.0 and RecA intein inh -0.4.
Cc1nc(S/C(=C/c2ccc(OCc3ccc(C(=O)O)cc3)cc2)C(=O)O)n[nH]1 was read as Arbovirus inh 4.7, Mtb H37Rv 0.2%, Mtb betalactam -1.7 and RecA intein inh 0.5.
For COc1ccc(S(=O)(=O)N2CCC(C)CC2)cc1Br the results were Arbovirus inh -2.3, YopH inh 15.7, Mtb H37Rv 1.4%, Mtb betalactam -6.6 and RecA intein inh 4.3.
COc1c([N+](=O)[O-])c(=O)n(-c2ccccc2)c2ccccc12 was read as Arbovirus inh 8.2, YopH inh -2.8, Mtb H37Rv 7.2%, Mtb betalactam 9.9 and RecA intein inh 2.5.
`COc1ccc(-c2csc(NC(=O)c3nc(-c4ccccc4)oc3C)n2)cc1` gave Arbovirus inh -4.6, YopH inh -28.4, Mtb H37Rv -1.1%, Mtb betalactam 7.8 and RecA intein inh 0.7.
`CCCN1C2CCCC1CC(NC(=O)c1cccc([N+](=O)[O-])c1)C2` (centres undefined) gave Mtb betalactam 2.7 and RecA intein inh -2.3.
CCCn1nc(C(=O)OCC(=O)NC(C)c2ccccc2)c2ccccc2c1=O (centres undefined) was read as Arbovirus inh 8.3, Mtb H37Rv 0.1%, Mtb betalactam 10.4 and RecA intein inh 5.0.
`COc1cc(CN2CCNC(=O)C2CC(=O)N(C)CCC2CCOCC2)cc(OC)c1` (centres undefined) gave Mtb betalactam 5.4 and RecA intein inh -2.7.
O=C(CC1C(=O)OCC2CCCCN21)Nc1ccccc1C(F)(F)F (centres undefined) was read as Arbovirus inh 3.6, Mtb H37Rv -10.8%, Mtb betalactam 0.9 and RecA intein inh -0.5.
Cc1cc(N2C(=O)C(O)=C(C(=O)c3cccs3)C2c2ccccc2)no1 (centres undefined) was read as Arbovirus inh 8.1, YopH inh -12.4, Mtb H37Rv -1.8%, Mtb betalactam -4.7 and RecA intein inh -2.1.
CCNC(=O)C/C(C)=N/NC(=O)C12CC3CC(CC(C3)C1)C2 was read as Arbovirus inh 2.2, YopH inh -20.7, Mtb H37Rv 1.3%, Mtb betalactam -1.6 and RecA intein inh 4.0.
`Cc1nnc(NC(=O)c2ccc(S(=O)(=O)N3CCOCC3)cc2)s1` gave Mtb H37Rv -5.5%, Mtb betalactam 0.2 and RecA intein inh -0.1.
CCOC(=O)C(Cc1ccccc1)(NC(C)=O)C(=O)OCC was read as Arbovirus inh 0.1, YopH inh 15.3, Mtb H37Rv -2.9% and Mtb betalactam -1.6.
`C/C(CCc1ccccc1)=N\NC(=O)CC(=O)NCCc1ccccc1` gave Arbovirus inh -0.6, YopH inh -7.9, Mtb H37Rv -5.6%, Mtb betalactam -4.6 and RecA intein inh -0.5.
Screening Cc1ccc2c(c1)N(CC(=O)NCC(C)c1ccccc1)C(=O)c1cccnc1O2 (centres undefined) returned Mtb betalactam -6.0 and RecA intein inh 1.1.
CCOc1ccc(N2CC(O)(c3ccc(F)cc3)[N+]3=C2CCCC3)cc1 (centres undefined) was read as Arbovirus inh -3.3, Mtb H37Rv 3.4%, Mtb betalactam -8.1 and RecA intein inh 3.5.
Screening Cc1cccc2cc(C3CC(c4ccco4)=NN3S(=O)(=O)c3ccccc3)c(Cl)nc12 (centres undefined) returned Arbovirus inh 16.6, YopH inh -26.6, Mtb H37Rv 3.4%, Mtb betalactam 4.9 and RecA intein inh 6.4.
Screening CC(=O)OCC1CCCC2=C(C)C(=O)CCC21COC(C)=O (centres undefined) returned Arbovirus inh 4.5, YopH inh -20.7, Mtb H37Rv -6.5%, Mtb betalactam -6.1 and RecA intein inh -0.4.
CCN1CCN(c2nc(SC)nc3sc4c(c23)CC(C)(C)OC4)CC1 was read as Arbovirus inh -0.1, YopH inh -1.5, Mtb H37Rv -0.2%, RecA intein inh -2.0 and Arbovirus inh repeat 10.7.
COC(=O)C[C@H]1c2cc(C(F)(F)F)ccc2S(=O)(=O)N1Cc1ccccc1 was read as Mtb H37Rv -2.1%, Mtb betalactam -3.2 and RecA intein inh 0.5.
For Nc1ccc(C(=O)OCC(=O)N2c3ccccc3Sc3ccccc32)cc1[N+](=O)[O-] the results were Arbovirus inh -8.0, YopH inh -22.9, Mtb H37Rv -1.2% and Mtb betalactam 0.8.
Cc1cc(C)n(-c2ccc(C(=O)NC3=NCCS3)cc2)n1 was read as Arbovirus inh -2.9, YopH inh -2.8, Mtb H37Rv -5.8%, Mtb betalactam -4.8 and RecA intein inh 0.4.
For CCCCOc1ccc(Cl)cc1CSc1nnc(CC)n1N the results were Arbovirus inh 12.1, YopH inh -4.6, Mtb H37Rv -0.8%, Mtb betalactam -9.5 and RecA intein inh -3.0.
For O=C(Cn1nc(Cl)nc1Cl)c1ccc([N+](=O)[O-])cc1 the results were Mtb betalactam -0.5 and RecA intein inh -2.4.
COc1ccc(NC(=S)N2CCC(c3nc4ccc(Cl)cc4[nH]3)CC2)c(OC)c1 was read as Arbovirus inh -2.7, YopH inh -33.8, Mtb H37Rv 4.7%, Mtb betalactam -0.2 and RecA intein inh 1.8.
`CC12CCC(c3nnc(SCc4ccc(Cl)cc4)nc31)C2(C)C` (centres undefined) gave Arbovirus inh -4.0, YopH inh 30.4, Mtb H37Rv 8.1%, Mtb betalactam 34.8 and RecA intein inh 4.4.
`Clc1ccc2scc(CN3CCCC3)c2c1` gave Mtb betalactam 12.7 and RecA intein inh 3.0.
CN(C)c1ccc(N2C(=O)CC(Sc3ccccc3C(=O)O)C2=O)cc1 (centres undefined) was read as Arbovirus inh 8.1, YopH inh -31.7, Mtb H37Rv -4.9%, Mtb betalactam -0.1 and RecA intein inh -1.7.
`CCSC1(SCC)N=C(N)C2(C#N)C(c3ccc(F)cc3)C12C#N` (centres undefined) gave Arbovirus inh -1.4, YopH inh -29.1, Mtb H37Rv -6.0%, Mtb betalactam 30.6 and RecA intein inh 49.7*.
`CN(Cc1cn(C)nc1-c1ccc(Oc2ccccc2)cc1)Cc1cnc2ccccn12` gave Arbovirus inh 11.0, Mtb H37Rv 66.2%, Mtb betalactam 32.7 and RecA intein inh 2.8.
For CCC(=O)Nc1nc(-c2ccc3c(c2)OCCO3)cs1 the results were Arbovirus inh 0.8, YopH inh -39.9, Mtb H37Rv 4.3%, Mtb betalactam 0.8 and RecA intein inh 3.1.
CC(OC(=O)Cn1[nH]c(=O)c2ccccc2c1=O)C(=O)NC1(C#N)CCCCC1 (centres undefined) was read as Mtb betalactam -4.9 and RecA intein inh -0.5.
Screening O=C(N/N=C/c1ccc(O)cc1)c1cccc(C(F)(F)F)c1 returned Arbovirus inh -6.8, YopH inh -20.1, Mtb H37Rv 4.7%, Mtb betalactam 0.4 and RecA intein inh -3.8.
Cc1ccc(-n2nc3c(c2NC(=O)c2ccc4c(c2)OCO4)CS(=O)(=O)C3)c(C)c1 was read as Mtb betalactam -1.0 and RecA intein inh 3.1.
CCN(CC)C(=O)CN(c1cccc(Br)c1)S(C)(=O)=O was read as Arbovirus inh -3.9, Mtb H37Rv 3.0%, Mtb betalactam -12.3 and RecA intein inh 3.1.

An excerpt. The share of hits here may be higher or lower than overall.
